Pin1 inhibitor: qHTS Assay to Find Inhibitors of Pin1; Peptidyl-prolyl cis-trans isomerase NIMA-interacting 1 (Homo sapiens), Q13526; Pin1 FP peptide displacement, HiFluor488, 10 min; Potency, µM (highest dose often 115 µM), inactives show top-dose activity, negative = inhibition, most hits filed as inhibitors; 390,000 tested, 0.009% active; AID 504891, 2011; active = well fitted inhibition curve with a large enough effect in the polarisation, with a control signal flat, not every such curve was filed as active; inconclusive = small, poorly fitted or top-dose-only effect, or effect the other way, or a change in a side signal; inactive = no such curve, though single readings can be large or run the other way; the % refers to the polarisation; note: potency is the fitted concentration of half-maximal effect; % is set by controls: 0 for no effect and ±100 for the full control effect
Target sequence (Q13526 whole entry, looked up): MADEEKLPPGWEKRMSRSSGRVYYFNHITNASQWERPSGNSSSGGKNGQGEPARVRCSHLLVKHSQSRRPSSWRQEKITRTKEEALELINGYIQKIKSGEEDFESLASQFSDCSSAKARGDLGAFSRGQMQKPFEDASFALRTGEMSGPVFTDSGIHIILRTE
PI4K2A inh: qHTS for small molecular inhibitors of PI4K2A. purified PI4K2A, ADP-Glo luminescence, 1 h; active compounds read low. 420,000 tested, 0.13% active. AID 1346378, 2018. activity change, negative = inhibition, % at 76.9 µM; in the data active = activity change below about -50%; inconclusive = mostly about -30% to -49%;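 note: -100% = wells without enzyme as full effect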
Target sequence (Q9BTU6 whole entry, looked up): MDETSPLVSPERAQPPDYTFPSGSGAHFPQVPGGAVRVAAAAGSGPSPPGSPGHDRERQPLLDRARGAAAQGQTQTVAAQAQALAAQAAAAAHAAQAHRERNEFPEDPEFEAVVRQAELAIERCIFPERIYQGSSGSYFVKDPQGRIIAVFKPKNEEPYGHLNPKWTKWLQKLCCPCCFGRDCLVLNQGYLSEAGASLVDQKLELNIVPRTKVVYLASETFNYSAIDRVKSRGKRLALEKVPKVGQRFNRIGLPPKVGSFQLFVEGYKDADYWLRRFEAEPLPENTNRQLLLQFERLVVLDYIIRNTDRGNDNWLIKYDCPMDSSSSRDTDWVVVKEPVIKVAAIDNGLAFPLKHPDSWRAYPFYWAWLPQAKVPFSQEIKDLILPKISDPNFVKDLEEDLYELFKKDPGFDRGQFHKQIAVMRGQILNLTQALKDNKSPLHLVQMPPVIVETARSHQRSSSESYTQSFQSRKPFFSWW
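ADP-Glo luminescence measured ADP generated by PI4K2A enzyme (4 ug/mL before mixing) with 1.2 mM PI substrate (pre-mix) and 300 microM ATP (pre-mix). Tris pH7.5 buffer with MgCl2, Triton X-100; 1 h reaction at ambient temperature.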
ERG Ets-DNA blk: qHTS for Small Molecule Inhibitors of the ERG Ets/DNA interaction. 370,000 tested, 0.028% active. fluorescence polarization, His-ERG Ets domain / labelled DNA. AID 624246, 2012. Potency, µM (top dose mostly 76.9 µM), for the others: at the top dose FP activity, negative = inhibition, most hits filed as inhibitors; active = well fitted inhibition curve with a large enough effect in the polarisation, with a control signal flat; inconclusive = small, poorly fitted or top-dose-only effect, or effect the other way, or a change in a side signal; inactive = no such curve, though single readings can be large or run the other way; the % refers to the polarisation;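 note: polarization taken with two DNA probes labelled with fluorescein and Texas red; potency is the fitted concentration of half-maximal effect; % of control where 0% means no effect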
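His-tagged ERG Ets domain (1 uM in the protein solution; 300mM KCl, 50mM Tris-HCl, 1mM EDTA, 1mM DTT, pH 7.5) received compound, then a probe mix of 5 nM fluorescein-DNA and 100nM Texas-615-DNA. Fluorescence polarization was read for both dyes.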
GLS inhibitor: qHTS for Inhibitors of Glutaminase (GLS). Glutaminase kidney isoform, mitochondrial (Homo sapiens), O94925. GLS enzymatic activity, qHTS titration. Potency, µM (highest dose often 45.5 µM), without a hit: at the top dose activity change, negative = inhibition, usual class: inhibitors. 410,000 tested, 0.21% active; note: potency is the fitted concentration of half-maximal effect; % is set by controls: 0 for no effect and ±100 for the full control effect
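Human kidney-isoform GLS in 45 mM KH2PO4 pH 8.2, 0.02% Tween-20, with compound, started with 1mM L-Glutamine (added stock). Glutamate oxidase/HRP/Amplex red coupled fluorescence read at start and after 30 min at RT.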
Tb PGK inh: qHTS Assay to Find Inhibitors of Phosphoglycerate Kinase; Phosphoglycerate kinase, glycosomal (Trypanosoma brucei brucei), P07378; PGK/GAPDH coupled, Kinase-Glo luminescence, 60 min; Potency, µM (highest dose often 57.5 µM), for the others: top-dose activity change, negative = inhibition, actives largely listed as inhibitors; AID 602233, 2012; 380,000 tested, 0.043% active; note: potency is the fitted concentration of half-maximal effect; % is set by controls: 0 for no effect and ±100 for the full control effect; nearly all actives have a fitted effect of over 60% in size
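Recombinant glycosomal PGK reaction used 1,3-bisphosphoglycerate generated in-well by GAPDH (100nM final) in 100mM TEA pH 7.6, 5mM MgCl2, 0.01% Tween-20. After 60 minutes at room temperature, ATP was read by Kinase-Glo Plus luminescence end-point.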
Active calls of the source: *; i = inactive; ? = inconclusive; . = no result given; [ ] = remark or other dose. Unless noted, calls come from the whole dose curve; as a rule, active = well fitted curve in the direction sought with a large enough effect; inconclusive = small, poorly fitted or top-dose-only effect, or another doubt; inactive = no such curve, though single readings can be large; an effect the other way counts as inactive or inconclusive. Only part of the results is shown, so the mix of outcomes need not match the whole.

SMILES	Pin1 inhibitor	PI4K2A inh	ERG Ets-DNA blk	GLS inhibitor	Tb PGK inh
O=C(CCCn1cnc([N+](=O)[O-])n1)Nc1cccc(Cl)c1Cl	-1.3%	0.5	-1.6%	2.9%	-7.3%
CCOC(=O)Cc1ccc(NC(=O)N2CC(CC)Oc3ccccc32)cc1 (stereo unspecified)	-12.3%	-2.9	8.5%	7.0%	-2.1%
Cc1cccc(S(=O)(=O)C(C#N)c2nc3ccccc3nc2N2CCCC2)c1 (stereo unspecified)	?	1.2	6.0%	30.2%	-11.2%
Cc1ccc(CN2CCN(C(=O)c3cccc4ccccc34)CC2)cc1	-24.2%	2.5	-12.1%	-10.6%	i
Cc1sc(NC(=O)C2CC(Cl)=CCC2C(=O)O)c(C#N)c1C (stereo unspecified)	-1.0%	2.1	12.0%	2.4%	0.4%
CC(C)c1nn2c(=O)cc(COC(=O)c3ccco3)nc2s1	5.7%	-7.0	-1.2%	7.4%	i
CCC(Sc1nc2cc(OC)c(OC)cc2c(=O)n1Cc1ccc(Cl)cc1)C(=O)NCCOC (stereo unspecified)	6.1%	-6.0	2.7%	-5.8%	-13.6%
CCN(CC)S(=O)(=O)c1ccc(OC)c(NC(=O)Cc2cccs2)c1	?	-18.2	9.7%	-15.7%	-16.4%
CCc1ccc(-n2c(=S)sc3c(=O)n(-c4ccccc4OC)c(=S)[nH]c32)cc1	35.4%[activator]	-0.1	-5.2%	3.7%	-1.7%
CC(OC(=O)CSc1ccc([N+](=O)[O-])cc1)C(=O)NCc1ccccc1 (stereo unspecified)	3.7%	-5.4	9.7%	15.6%	i
O=c1cc(COc2ccc(Cl)cc2Cl)nc2scc(-c3ccccc3)n12	?	-9.6	-0.5%	-14.1%	-0.7%
COc1cccc(NC(=O)c2ccc(NS(=O)(=O)c3cccs3)cc2)c1	1.8%	-0.1	-2.6%	-5.2%	i
CC(C)(C)NC(=O)COC(=O)c1c2c(nc3ccccc13)CCC2	3.6%	-9.8	7.9%	4.6%	-1.6%
COc1ccc(N2C(=O)CC(Sc3n[nH]c(-c4ccc(C)cc4)n3)C2=O)cc1 (stereo unspecified)	-0.2%	1.7	-6.7%	?	i
O=S(=O)(Cc1ccccc1Cl)c1ncn[nH]1	3.8%	-9.1	-3.4%	26.4%	i
COc1ccc(NC(=O)CN(C)C(=O)Cc2ccc(S(=O)(=O)N3CCOCC3)s2)cc1	26.2%	-4.1	1.1%	3.2%	-8.9%
Cc1ccc(NC(=O)CCc2nc3sc4c(c3c(=O)[nH]2)CCCC4)nc1	52.5%[activator]	-6.4	3.0%	83.2%[activator]	-20.5%
O=C(c1ccccc1-c1nc(-c2ccc(Cl)cc2)no1)N1CCCC1	0.6%	3.0	.	-8.7%	.
CC(=O)N1CCC(=O)N(C(C)C)c2ccccc21	6.5%	-0.9	-6.8%	0.4%	-1.1%
CC(C)NC(=O)c1c2c(nc3ccccc13)CCCC2	5.5%	-0.9	-2.3%	-1.0%	-7.9%

Compounds shown so far containing an aryl methoxy group:
SMILES	Pin1 inhibitor	PI4K2A inh	ERG Ets-DNA blk	GLS inhibitor	Tb PGK inh
CCC(Sc1nc2cc(OC)c(OC)cc2c(=O)n1Cc1ccc(Cl)cc1)C(=O)NCCOC (stereo unspecified)	6.1%	-6.0	2.7%	-5.8%	-13.6%
CCN(CC)S(=O)(=O)c1ccc(OC)c(NC(=O)Cc2cccs2)c1	?	-18.2	9.7%	-15.7%	-16.4%
CCc1ccc(-n2c(=S)sc3c(=O)n(-c4ccccc4OC)c(=S)[nH]c32)cc1	35.4%[activator]	-0.1	-5.2%	3.7%	-1.7%
COc1cccc(NC(=O)c2ccc(NS(=O)(=O)c3cccs3)cc2)c1	1.8%	-0.1	-2.6%	-5.2%	i
COc1ccc(N2C(=O)CC(Sc3n[nH]c(-c4ccc(C)cc4)n3)C2=O)cc1 (stereo unspecified)	-0.2%	1.7	-6.7%	?	i
COc1ccc(NC(=O)CN(C)C(=O)Cc2ccc(S(=O)(=O)N3CCOCC3)s2)cc1	26.2%	-4.1	1.1%	3.2%	-8.9%

Part of the list above, showing only GLS inhibitor and PI4K2A inh:
| smiles | GLS inhibitor | PI4K2A inh |
| --- | --- | --- |
| COc1ccc(N2C(=O)CC(Sc3n[nH]c(-c4ccc(C)cc4)n3)C2=O)cc1 (stereo unspecified) | ? | 1.7 |
| O=S(=O)(Cc1ccccc1Cl)c1ncn[nH]1 | 26.4% | -9.1 |

Continued:
SMILES	Pin1 inhibitor	PI4K2A inh	ERG Ets-DNA blk	GLS inhibitor	Tb PGK inh
CN1CCN(c2oc(/C=C/c3ccc(F)cc3)nc2C#N)CC1	-0.2%	0.8	0.1%	-11.9%	.
C[N+]1(C)CC[C@H](OC(=O)[C@@](O)(c2ccccc2)C2CCCC2)C1	-3.5%	0.2	-2.0%	6.1%	i
CCOC(=O)c1sc(NC(=O)c2ccncc2)c(C#N)c1C	30.2%[activator]	-2.8	-3.3%	-1.9%	9.1%
CCc1ccc(N2C(=O)c3sc4nnc(-c5ccccc5)c(=O)n4c3C2=O)cc1	9.0%	-6.9	-0.4%	-0.7%	-9.8%
CCOC(=O)c1sc(=S)n(-c2cc(OC)ccc2OC)c1N	-1.7%	7.3	1.3%	-12.4%	i
Cc1ccccc1NS(=O)(=O)c1ccc2[nH]cc(C(=O)NC3CCCCC3)c(=O)c2c1	19.6%	-2.4	-2.0%	-10.5%	-17.3%
CN(c1ccccc1)S(=O)(=O)c1ccc(C(=O)OCC(=O)NC(N)=O)cc1	0.7%	-3.5	-3.6%	0.5%	-4.2%
COC(=O)C1=NN(c2cccc(C)c2)C2C(=O)N(c3ccccc3OC)C(=O)C12 (stereo unspecified)	-2.0%	-4.6	11.4%	14.8%	-0.4%
O=C(Nc1ccc2oc(=O)ccc2c1)c1ccc(-c2cccc(Cl)c2)o1	25.5%	2.9	-0.6%	-1.3%	3.8%
O=C(O)c1cc(S(=O)(=O)N2CC=C(c3ccccc3)CC2)ccc1O	-3.0%	-7.9	5.2%	44.1%[activator]	i
O=C(NN1CC(C(=O)OCc2ccc(Cl)cc2Cl)CC1=O)c1ccccc1 (stereo unspecified)	-5.0%	-6.4	-6.4%	1.0%	-9.4%
COc1ccc(CNC(=O)c2ccc(CS(=O)Cc3cccc(Cl)c3)o2)cc1 (stereo unspecified)	-10.8%	-17.0	-4.8%	-2.0%	0.0%
CCc1nn2c(=O)cc(COC(=O)c3ccccc3)nc2s1	4.2%	1.2	-4.8%	8.6%	i
CCOc1ccccc1NC1=C(Cl)C(=O)N(c2ccccc2)C1=O	-4.2%	2.6	6.7%	17.6%	2.3%

Compound activity: PubChem BioAssay, National Center for Advancing Translational Sciences (NCATS)
